Bioassay records: PubChem BioAssay, Southern Research Specialized Biocontainment Screening Center
Mtb bLac sens – beta-lactam sensitization of Mtb H37Rv; M. tuberculosis H37Rv growth with meropenem, percent inhibition; hits of this screen are not shown here; inhibition, % at 25 µM; 0.27% of 330,000 active;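 active = about 74% or more and at least 40 points above the plate without the antibiotic, then above 30% in a dose series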;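 also: growth measured after seven days incubation then overnight dye step; 0% = bacteria only wells and 100% = bacteria with antibiotic; twin plates without the antibiotic show which effects depend on it; some results filed as inactive read as strong as hits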
* hit, by the source's call. Not all compounds are listed; the hit share may differ from the screen's.

Preview (two entries):
SMILES	Mtb bLac sens
CC(=O)Nc1ccc(O)cc1	-3.9
CC(=O)Nc1ccccc1	-4.0

The whole of this part, from the start:
SMILES	Mtb bLac sens
CC(=O)Nc1ccc(O)cc1	-3.9
CC(=O)Nc1ccccc1	-4.0
COc1ccc(/C=C/C(=O)O)cc1	4.3
CCOC(=O)NNc1nncc2ccccc12	-2.1

Sorted by molar mass (ascending): three of the compounds above.
SMILES	Mtb bLac sens
CC(=O)Nc1ccc(O)cc1	-3.9
COc1ccc(/C=C/C(=O)O)cc1	4.3
CCOC(=O)NNc1nncc2ccccc12	-2.1
